# Bioassay records from PubChem.
# KCNQ2 block: KCNQ2 potassium channel inhibitors, primary screen, cell-based, CHO-K1, FluxOR thallium flux, B-score (AID 2156). 310,000 tested, 1.1% active. B-score at 10 µM. 20 min; hits give low values; only compounds with negative scores are shown here; some inactives read as strong as hits;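 active = fluorescence ratio B-score at most minus 3 library SDs, with starting brightness B-score within 2 library SDs, cut at about -5.5 in these data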
# Target sequence (O88943 whole entry, looked up): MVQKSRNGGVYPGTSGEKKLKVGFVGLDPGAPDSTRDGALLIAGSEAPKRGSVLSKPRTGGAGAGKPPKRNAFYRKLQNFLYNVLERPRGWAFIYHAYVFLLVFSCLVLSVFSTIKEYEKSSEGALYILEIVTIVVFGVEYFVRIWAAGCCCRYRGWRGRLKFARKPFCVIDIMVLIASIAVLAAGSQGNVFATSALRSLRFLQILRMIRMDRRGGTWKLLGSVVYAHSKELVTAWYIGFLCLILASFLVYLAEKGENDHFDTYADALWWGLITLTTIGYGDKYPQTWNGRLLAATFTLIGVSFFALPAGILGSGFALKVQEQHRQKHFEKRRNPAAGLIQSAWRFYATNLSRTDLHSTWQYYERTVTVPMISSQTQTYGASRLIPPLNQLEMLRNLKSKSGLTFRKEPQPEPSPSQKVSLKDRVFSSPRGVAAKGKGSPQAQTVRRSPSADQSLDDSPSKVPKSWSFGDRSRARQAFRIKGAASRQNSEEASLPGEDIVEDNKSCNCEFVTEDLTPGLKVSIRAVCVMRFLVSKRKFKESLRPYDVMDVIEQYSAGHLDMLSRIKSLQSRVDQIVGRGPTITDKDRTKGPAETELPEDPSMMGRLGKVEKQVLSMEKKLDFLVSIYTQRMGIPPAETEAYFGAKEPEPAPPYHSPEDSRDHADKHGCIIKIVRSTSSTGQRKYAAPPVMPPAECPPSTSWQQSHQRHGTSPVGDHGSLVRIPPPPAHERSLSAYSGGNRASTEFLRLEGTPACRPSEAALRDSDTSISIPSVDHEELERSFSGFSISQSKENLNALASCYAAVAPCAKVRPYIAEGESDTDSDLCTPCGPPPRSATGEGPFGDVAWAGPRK
# KCNQ2 block baseline: also measured in KCNQ2 block; calls as there; B-score; measured here: initial fluorescence intensity artifact check;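 brightness before thallium and not channel activity; 0 = typical well and far values either way flag optical interference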
# Starred values were filed as active, the others as inactive; i = inactive. Not all compounds are listed (hit frequency here may not be typical).
item	structure	KCNQ2 block baseline	KCNQ2 block
1	Cc1c(C(=O)NCc2ccccc2)oc2ccc(S(=O)(=O)N3CCC4(CC3)OCCO4)cc12	-0.17	i
2	N#Cc1ccccc1Cn1c(=O)oc2ccccc21	1.8	i
3	O=C(O)C1C(C(=O)Nc2ccc(Cl)cc2)C2C=CC1C21CC1 (configuration not stated)	-0.74	i
4	COc1cc(C(O)c2nc3ccccc3n2C)cc(OC)c1OC (configuration not stated)	1.7	i
5	N#CC1CC(c2ccccc2)=NN1c1ccccc1[N+](=O)[O-] (configuration not stated)	-0.88	i
6	O=C(CN1CCN(Cc2cccc(Cl)c2)C1=O)NCc1cccs1	-0.06	i
7	CC1(C)CC(=O)c2sc(NC(=O)C3CC3)nc2C1	-0.59	i
8	O=C(CSc1nnc(-c2ccc(Cl)cc2)n1-c1ccc(Cl)cc1)N/N=C/c1ccccc1C(=O)O	2.7	i
9	Cc1nn(CCc2n[nH]c(=S)n2-c2ccc(F)c(Cl)c2)c(C)c1[N+](=O)[O-]	-1.6	i
10	CC(C)Oc1ccc(C2CC(=O)N(c3cccc(Br)c3)C2=O)cc1 (configuration not stated)	-2.5	i
11	CC(=O)c1cccc(NC(=O)C2=CC(c3cccs3)=NS(=O)(=O)N2C)c1	-1.4	i
12	CN1N=C(c2ccc(Cl)cc2)CC(c2ccc(Cl)cc2)C1=O (configuration not stated)	-0.19	i
13	COc1cc(C(=O)N2C(=O)c3cccc(N)c3C2=O)cc(OC)c1OC	-1.1	i
14	CCOc1cc2[nH]c(=S)n(CCCN3CCOCC3)c(=O)c2cc1OCC	2.2	i
15	O=S(=O)(NCc1ccco1)c1ccc(S(=O)(=O)N2CCCC2)cc1	-1.8	i
16	COc1ccc2cc(-c3ccn[nH]3)ccc2c1	0.92	i
17	FC(F)(F)c1ccccc1CNCc1ccc2c(c1)OCO2	1.2	i
18	CC1(C)Cc2c(c(=S)nc(-c3ccccc3)n2CCO)CO1	-0.65	i
19	CCOC(=O)CNC(=S)N(Cc1ccccc1)Cc1ccccc1F	1.3	i
20	NC(=O)NC(Cc1ccccc1)C(=O)NCCCSc1ccccc1 (configuration not stated)	-0.83	i
21	CCCCn1c(=NC(C)=O)c(C#N)cc2c(=O)n3cccc(C)c3nc21	0.03	i
22	OCCn1c(SCCOc2ccccc2)nc2ccccc21	-1.7	i
23	O=C(O)CCCCCNC(=O)c1ccncc1	-0.7	i
24	O=C(C1CCCN(Cc2ccncc2)C1)N1CCc2ccccc2C1 (configuration not stated)	0.71	i
25	c1ccc(Cn2ncc3c(NCc4ccco4)ncnc32)cc1	-0.27	i

# Molecules from the list above with a COOH group (three):
item	structure	KCNQ2 block baseline	KCNQ2 block
3	O=C(O)C1C(C(=O)Nc2ccc(Cl)cc2)C2C=CC1C21CC1 (configuration not stated)	-0.74	i
8	O=C(CSc1nnc(-c2ccc(Cl)cc2)n1-c1ccc(Cl)cc1)N/N=C/c1ccccc1C(=O)O	2.7	i
23	O=C(O)CCCCCNC(=O)c1ccncc1	-0.7	i

# The list goes on.
item	structure	KCNQ2 block baseline	KCNQ2 block
26	O=C(CN(Cc1ccccc1F)S(=O)(=O)c1ccc(Cl)cc1)NCCCO	-0.12	i
27	CC1(C)CC(=O)C(C=NCCN2CCN(C3CC(=O)N(c4cccc(Br)c4)C3=O)CC2)=C(O)C1 (configuration not stated)	1.1	i
28	CCc1cccc(C)c1NC(=O)C1CC=CCC1C(=O)O (configuration not stated)	1.5	i
29	CCn1c(/C(C#N)=N/O)nc2ccccc21	2.8	i
30	CC(O)CCC(=O)NNC(=S)Nc1ccccc1 (configuration not stated)	-0.94	i
31	O=C(C1CCN(S(=O)(=O)c2ccc(Br)s2)CC1)N1CCN(c2ccccc2)CC1	0.13	i
32	COc1ccc(CCNC(=O)CSc2nc3c(c(=O)n(C)c(=O)n3C)n2C)cc1OC	0.11	i
33	Cc1cc(NC(=O)CCC(=O)N(c2ccccc2)C(C(=O)NCC2CCCO2)c2cccnc2)no1 (configuration not stated)	-1.6	i
34	CSc1ccc(CNC(=O)C2Cc3cc(S(=O)(=O)N4CCCC4)ccc3N2C(C)=O)cc1 (configuration not stated)	2.1	i
35	CCOC(=O)c1cnc(-c2ccccc2)nc1N(C)C	0.04	i
36	O=C1CCN(Cc2ccccc2)CCN1CCOc1ccccc1	0.69	i
37	Cc1ccc(C(=O)C(C)OC(=O)c2ccccc2[N+](=O)[O-])cc1 (configuration not stated)	-1.5	i
38	O=c1[nH]c(/C=C/c2ccccc2OC(F)F)nc2c1cnn2-c1ccccc1	-1.4	i
39	Cc1ccc(C(=O)CSc2nc(-c3ccccc3)ccc2C#N)cc1	0.87	i
40	CN(C)c1ccc(C(=O)OCC(=O)N2CCCCCC2)cc1	0.01	i
41	Cc1cc(C(=O)CN2C(=O)NC(c3ccccc3)(c3ccccc3)C2=O)c(C)n1Cc1ccccc1	0.67	i
42	COc1ccc(-c2noc(COc3ccc(C)c(C)c3)n2)cc1OC	0.7	i
43	CC(=O)CSc1nnc(C(F)(F)F)n1C	1.9	i
44	Cc1nn(Cc2c(Cl)cccc2Cl)c(C)c1N	-0.14	i
45	C=C1CCN([C@H](C(=O)OCc2cccc(C)c2)C(C)C)S(=O)(=O)c2ccccc21	-0.47	i
46	COc1cccc(C2CC(c3cccs3)Nc3ncnn32)c1 (configuration not stated)	-0.72	i
47	COc1ccccc1NC(=O)Cc1csc(NC(=S)Nc2ccc(C)cc2)n1	-0.05	i
48	C/C(=N\N=C(N)N)c1ccc(Cl)c(Cl)c1	0.02	i
49	Cc1ccccc1C(=O)Nc1ccc(C(=O)O)cc1NC(=O)c1ccccc1C	-0.24	i
50	CCC(NC(=O)c1ccccc1NC(=O)c1ccco1)C(=O)NC1CCCCC1 (configuration not stated)	-0.36	i

# Record cards, as listed above. Screens in order: KCNQ2 block baseline, KCNQ2 block
# Entry for CCc1cccc(C)c1NC(=O)C1CC=CCC1C(=O)O (configuration not stated) = 1.5, i
# Entry for C/C(=N\N=C(N)N)c1ccc(Cl)c(Cl)c1 = 0.02, i
# Entry for CC(O)CCC(=O)NNC(=S)Nc1ccccc1 (configuration not stated) = -0.94, i
# Entry for O=c1[nH]c(/C=C/c2ccccc2OC(F)F)nc2c1cnn2-c1ccccc1 = -1.4, i
# Entry for COc1cccc(C2CC(c3cccs3)Nc3ncnn32)c1 (configuration not stated) = -0.72, i

# The list goes on:
item	structure	KCNQ2 block baseline	KCNQ2 block
51	O=C(NNC(=O)c1ccc(-c2ccccc2)cc1)Nc1ccccc1F	-0.18	i
52	CCOC(=O)/C(=C\c1ccc(OC)c(OC)c1)C(=O)c1cccnc1	-0.16	i
53	Nc1nc(SCc2cccc([N+](=O)[O-])c2)n[nH]1	-0.06	i
54	C[n+]1cn(Cc2ccc(C#N)cc2)c2ccccc21	-1.4	i
55	O=C(COc1ccc(Cl)cc1)NCc1nnc(SCC(=O)N2CCCCC2)o1	0.78	i
56	CCc1c(C(C)=O)oc2ccc3c(C)cc(=O)oc3c12	2.2	i
57	Cc1cc(OCc2nc(-c3cccnc3)no2)c(C)cc1Br	2	i
58	CCCCn1c(N)c(N(CCOC)C(=O)C2CCN(C(=O)c3ccc(F)cc3)CC2)c(=O)[nH]c1=O	2	i
59	CCCC[C@@H](CNC)NC[C@H](NCCCCC1CCCCC1)C(C)C	0.41	i
60	COc1ccccc1CCCNC(=O)C1CCC(=O)N(CCc2cccc(F)c2)C1 (configuration not stated)	-0.9	i
61	COC(=O)C1C(=O)c2c([nH]c(C(=O)OC3CCCC3C)c2C)CC1C (configuration not stated)	-0.11	i
62	COc1ccc(/C=C/c2onc(C)c2S(=O)(=O)N2CCC(C(=O)N3CCCCCC3)CC2)cc1	-0.08	i
63	COc1ccc(S(=O)(=O)N2CCCC(C(=O)Nc3ccc(NC(=O)c4ccccn4)cc3)C2)cc1 (configuration not stated)	-0.22	i
64	CN(c1ccc(C(=O)NCCSCc2ccccc2)cc1)S(=O)(=O)c1ccccc1	-1.6	i
65	CCOC(=O)c1cc(C)n(-c2ccc(Cl)cc2)c1C	-0.04	i
66	CCc1noc(C)c1C(=O)N1CCN(S(=O)(=O)c2ccc(C(C)C)cc2)CC1	0.67	i
67	O=C(Nc1ccccc1C(=O)O)c1cccc(C(=O)Nc2ccccc2C(=O)O)c1	1.3	i
68	CCC(C)n1c(=N)c(C#N)cc2c(=O)n3cc(C)ccc3nc21 (configuration not stated)	-0.05	i
69	COc1ccc(Cl)cc1NC(=O)c1cccc(N2C(=O)C3CC=CCC3C2=O)c1 (configuration not stated)	0.17	i
70	CCOc1ccc(NC(=O)CN(c2ccc(OC)cc2)S(C)(=O)=O)cc1	-0.07	i
71	CCCNc1nc(C)nc2c1cnn2CCc1ccccc1	0.11	i
72	COc1ccccc1N1CCN(c2nc(C)cc(C)c2C#N)CC1	0.05*	-5.9*
73	CC1CN(c2ncc(/C=N/NC(=O)c3ccccc3O)s2)CC(C)O1 (configuration not stated)	0.33	i
74	CC1(C)CC(=O)C(N=Nc2ccc3ncsc3c2)=C(O)C1	0.02	i
75	CC(NC(=O)c1cccc(Cl)c1)C1CC2CCC1C2 (configuration not stated)	-2.9	i

# (list continues)
item	structure	KCNQ2 block baseline	KCNQ2 block
76	COc1ccc(OC)c(NC2c3ccccc3C(=O)N2Cc2ccc3c(c2)OCO3)c1 (configuration not stated)	-1.7	i
77	O=C(c1c(Cl)cccc1Cl)N1CCN(c2cccc3[nH]ccc23)CC1	-1.7	i
78	Cc1ccsc1C(=O)OCC(=O)Nc1c(C)n(C)n(-c2ccccc2)c1=O	1.2	i
79	CN(CC(=O)Nc1ccc([N+](=O)[O-])cc1Br)Cc1c(F)cccc1Cl	-0.67*	-11*
80	C=C1CCN([C@@H](Cc2ccccc2)C(=O)NCCC(C)C)S(=O)(=O)c2ccccc21	-0.84	i
81	COc1ccc(C2(C(=O)N3CCCC3)CCOCC2)cc1OC	0.41	i
82	CC1CCN(C(C)C(=O)Nc2ccccc2-c2ccccc2)CC1 (configuration not stated)	0.43	i
83	COc1cccc(/C=N/NC(=O)C(=O)Nc2ccccc2OC(F)(F)C(F)F)c1O	0.41	i
84	Cc1ccc(N=Nc2c(=O)[nH]n3c(C)cc(C)nc23)cc1	-1.4	i
85	O=C(CN1C(=O)/C(=C\c2cccc(Cl)c2)Sc2ccccc21)NCCCN1CCOCC1	0.8	i
86	NC(=O)c1ccccc1NC(=O)CN1CCOCC1	-1.7	i
87	CCn1c(=O)c(C(=O)NCCCc2ccccc2)c(O)c2ccccc21	-1.1	i
88	N=C(N)SCc1cn2ccccc2n1	1.9	i
89	COc1cc(/C=C/C(=O)Oc2coc(CSc3ncccn3)cc2=O)cc(OC)c1OC	-1.1	i
90	CC1CCCCN1C(=O)CCS(=O)(=O)c1cccc2nonc12 (configuration not stated)	-1.3	i
91	O=C(Nc1ccc(Cl)c(Cl)c1)Nc1cc(S(=O)(=O)N2CCOCC2)ccc1N1CCCC1	0.3	i
92	CN(C)S(=O)(=O)c1cccc(C(=O)NC2CCSc3ccccc32)c1 (configuration not stated)	-2	i
93	C/C(=N\NC(=O)Cc1ccc(F)cc1)c1ccc(F)cc1	-2.7	i
94	O=S1(=O)CCC(NC(=S)N2CCOCC2)C1 (configuration not stated)	1.4	i
95	CN1CCN(S(=O)(=O)c2cccc(C(=O)Nc3sc4c(c3-c3nc5ccccc5[nH]3)CCCC4)c2)CC1	-0.5	i
96	Cc1ccc(C)c(NC(=O)CCN2CCN(c3ccccc3F)CC2)c1	-0.26	i
97	CCCNC(=O)c1cc(-c2ccc3c(c2)OCO3)on1	-0.67	i
98	CCC[n+]1c2ccccc2cc2ccccc21	7.2	i
99	COc1ccc(S(=O)(=O)Nc2ccccc2C)cc1	-0.73	i
100	Cc1nn(-c2ccccc2)c(N2CCCC2)c1/C=N/NC(=S)Nc1ccc(F)cc1	-0.41	i

# The list goes on.
item	structure	KCNQ2 block baseline	KCNQ2 block
101	Cc1ccc(Cl)cc1NC(=O)C1CCCN(c2cnccn2)C1 (configuration not stated)	1.1	i
102	COc1ccc(NC(=O)c2csc3c2CCCC3)cc1	0.21	i
103	O=C1c2ccccc2C(=O)N1Cc1cc(-c2ccccc2Cl)no1	-1.2	i
104	C/C(CC(=O)Nc1cccc2c1CCCC2)=N\NC(=O)c1cccc2ccccc12	-1.7	i
105	Cc1ccc(C)c(N2CCN(C(=O)c3csc4ccccc34)CC2)c1	-0.08	i
106	CCCCCCCCCCn1ccc(=N)cc1	-0.01	i
107	COc1cc(C)c(CN2CCSCC2)cc1C	0.95	i
108	CCOc1ccc(NC(=S)NNc2ccnc3cc(Cl)ccc23)cc1	-1.2	i
109	C=CCN1C(=O)c2ccc(C(=O)N(C)CC(=O)Nc3ccccc3Cl)cc2C1=O	0.45	i
110	COc1cc(-c2nc3ccc4ccccc4c3c3c2CCC3)cc(OC)c1O	-2.6	i
111	O=C(CC1S/C(=N/N=C/c2cccs2)NC1=O)Nc1ccc(Cl)c(Cl)c1 (configuration not stated)	1.5	i
112	COC(=O)c1sc(NC(=O)C2c3ccccc3Oc3ccccc32)c(C(=O)OC)c1C	0.08	i
113	Cc1[nH]c2ccccc2c1C(=O)C(=O)N1CC=C(c2ccccc2)CC1	-0.05	i
114	O=C1C(=O)N(CCCn2ccnc2)C(c2ccc(Br)cc2)/C1=C(\O)c1ccc2c(c1)OCCO2 (configuration not stated)	1.5	i
115	O=S(=O)(/C=C/c1ccccc1)NC1CCCCCC1	-1.5	i
116	NNC(=O)c1snnc1-c1ccccc1	-0.69	i
117	CCn1c(CNC(=O)c2ccccc2F)nnc1SCC(=O)NC1CCCCC1	-1	i
118	O=C(NCC1OCCc2ccccc21)c1ccc(NC(=O)c2ccc(Cl)cc2Cl)cc1 (configuration not stated)	0.42	i
119	O=C(Nc1ccnn1C1CCN(Cc2ccc(F)cc2)CC1)C1CC1	-0.51	i
120	COc1ccc(C=O)cc1CSc1nnc(COc2cccc3cccnc23)o1	-0.03	i
121	O=C1C=C(Nc2ccc(Cl)cc2)CC(c2ccco2)C1 (configuration not stated)	-0.63	i
122	Cc1cc(C(=O)COC(=O)C2=NNC(=O)CC2)c(C)n1-c1cccc(C(F)(F)F)c1	1.1	i
123	COc1ccccc1C(=O)NCCC(=O)N(C)CC(=O)Nc1ccc(C)cc1	-1.2	i
